Screening results from PubChem BioAssay.
MT1-MMP act inh: inhibitors of human MT1-MMP activation; GFP/RFP ratio change, % at 20 µM; P50281; HT1080 RFP-PRO-GFP cells, GFP/RFP ratio fluorescence, overnight; percent of plate control window, DMSO zero; AID 651647; hit rate 0.061% among 360,000;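 active means GFP/RFP ratio change of at least 30% with cell ATP level not reduced by more than half and red fluorescence within 50% of control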; further: strong numbers were not always called active
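Assay system: HT1080 RFP-PRO-GFP cells. Benchmarks: DMSO vehicle wells and RFP-L50D-GFP reporter cell wells. Times: overnight cell settling, then overnight compound exposure, 37 °C, 5% CO2. Compound: 20 µM single dose, 1% DMSO. Read-out basis: GFP/RFP fluorescence ratio.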
PABP FP inh: blocks human PABP binding to poly(A) RNA; P11940; fluorescence polarization; inhibition, % at 35 µM; hit rate 1% among 290,000;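 active means 50% or more with normal probe brightness, or confirmed in later tests; about a fifth of its hits are not listed in these tables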;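 further: calls also rest on retests at 20 µM and on dose response follow-up; controls were probe without protein and protein plus probe with vehicle; some compounds called inactive have numbers as strong as hits; many hits fall short of the cut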
Target sequence (P11940 whole entry, looked up): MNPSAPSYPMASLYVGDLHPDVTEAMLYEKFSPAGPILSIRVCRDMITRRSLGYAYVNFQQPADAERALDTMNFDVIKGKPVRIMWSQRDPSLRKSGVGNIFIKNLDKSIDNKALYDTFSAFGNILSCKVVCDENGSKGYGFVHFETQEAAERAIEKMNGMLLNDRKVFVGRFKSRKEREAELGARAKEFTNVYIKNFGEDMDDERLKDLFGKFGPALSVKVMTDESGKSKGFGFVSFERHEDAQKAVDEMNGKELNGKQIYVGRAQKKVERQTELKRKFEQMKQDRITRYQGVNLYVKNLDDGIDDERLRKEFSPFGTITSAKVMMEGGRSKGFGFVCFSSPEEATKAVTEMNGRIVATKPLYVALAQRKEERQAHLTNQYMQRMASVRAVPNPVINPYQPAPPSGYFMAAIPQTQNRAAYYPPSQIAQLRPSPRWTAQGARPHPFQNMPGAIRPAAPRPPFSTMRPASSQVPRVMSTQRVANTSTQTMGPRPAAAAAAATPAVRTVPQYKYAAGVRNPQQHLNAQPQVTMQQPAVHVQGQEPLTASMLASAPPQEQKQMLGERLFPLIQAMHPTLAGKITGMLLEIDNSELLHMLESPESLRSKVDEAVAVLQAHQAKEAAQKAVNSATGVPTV
Yeast UUG start: alters start codon recognition fidelity in yeast; S. cerevisiae UUG-firefly luciferase reporter, luminescence/redox ratio; hit rate 0.13% among 350,000; AID 602363; activity score, % at 18.7 µM;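 active means replicate mean at a twofold rise or more, about +100% in these data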;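 further: firefly luciferase made from a UUG start codon reports start codon fidelity; reporter light over untreated wells divided by growth signal over untreated wells; some hits fall short of that in this replicate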
CSC inhib: cancer stem cell inhibition | hit rate 1.1% among 300,000 | cancer stem cell-like cells viability, luminescence | inhibition, % at 7.5 µM;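 active means mean at 75% or more and at least half the replicates too; tested in HMLE shEcad cells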;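 further: 0% = median of negative and 100% = median of positive control wells; the first replicate is given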
eIF4H inh: inhibitors of RNA binding by human eIF4H; Q15056; eIF4H fluorescence polarization binding assay; inhibition, % at 35 µM; hit rate 0.94% among 290,000; AID 2012;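 active means 50% or more with normal probe brightness, or confirmed in later tests; about a fifth of its hits are not listed in these tables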;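 further: calls also rest on retests at 20 µM and on dose response follow-up; 0% = protein and probe with vehicle and 100% = probe without protein; strong numbers were not always called active; many hits fall short of the cut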
Rce1 inhib: blocks yeast Ras-converting enzyme | Q03530 | yeast membranes, quenched prenylated peptide cleavage fluorescence | calls only | hit rate 0.27% among 290,000 | AID 2563;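 active means fall in fluorescence gain of 50% or more versus controls, with final raw signal at or below 3038400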;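 further: plate controls were neutral control wells for no effect and wells lacking membranes for full effect; tested at 10 µM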
HIV Env fusion: HIV envelope-mediated fusion inhibition | hit rate 1.1% among 360,000 | inhibition, % at 12.3 µM | HeLa-JRFL Env/CEM21 cell fusion, luciferase;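 active means mean replicate inhibition score of at least 50 and every replicate individually at or above 50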;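 further: 0% = plate neutral controls and 100% = maraviroc near 300 nM; one replicate is shown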
eIF4H inh retest: second read-out of eIF4H inh, no call of its own (marks repeat the call); inhibition, %; compound at 20 µM; confirmation average;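 mean of two retest wells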
PABP FP inh retest: recorded beside PABP FP inh, whose call it bears; inhibition, %; compound at 20 µM; confirmation repeats;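 mean of two retest wells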
MT1-MMP act inh RFP: recorded beside MT1-MMP act inh, whose call it bears; RFP signal change, %; measured here: RFP expression control read;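 0 = vehicle wells; hits needed this value within 50% of zero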
An asterisk follows results filed as active; i = inactive; . = no result given.

SMILES | MT1-MMP act inh | MT1-MMP act inh RFP | PABP FP inh | Yeast UUG start | CSC inhib | eIF4H inh | Rce1 inhib | HIV Env fusion | others
Cc1ccc(OCc2nnc(SCC(=O)Nc3ccc(N4CCOCC4)cc3)o2)cc1 | 3 | 6 | 7 | -3 | -2 | -16 | . | 6
COc1ccc(NC(=O)CN(c2ccccc2F)S(=O)(=O)c2ccc(C)cc2)c(OC)c1 | 3 | 1 | -2 | 13 | 4 | 2 | i | 3
COc1cc(OC)cc(C(=O)N[C@H](C(=O)OCC(=O)c2ccc(C)c([N+](=O)[O-])c2)C(C)C)c1 | 4 | -2 | . | . | -1 | . | . | 32
Cc1cnc(C)c(Nc2nc(C(N)Cc3ccccc3)cs2)n1 (configuration not stated) | -3 | -3 | . | -11 | . | . | . | -27
O=C(Nc1ccc2c(c1)OCO2)N1CCN(C/C=C/c2ccccc2)CC1 | 15 | 3 | 7 | -5 | -1 | 5 | i | 4
COc1ccc(-c2cc(C(=O)NN)[nH]n2)cc1 | 2 | 5 | 4 | . | -4 | -6 | i | -40
Cc1ccc2nc(SCC(=O)N3CCCc4ccccc43)nc(=O)n2c1 | -3 | 1 | . | -1 | . | . | . | -8
C=CCOc1ccc(/C=C2\SC(N3CCCCC3)=NC2=O)cc1 | 3 | -1 | 1 | -17 | 7 | 1 | i | -8
COc1ccc(NC(=O)CSc2ccc3nnc(-c4ccccn4)n3n2)cc1 | 5 | 3 | 0 | -22 | -7 | -6 | i | -9
CC(=O)C1=C(Nc2ccc(C)cc2)CC(C)(O)C(C(C)=O)C1c1ccco1 (configuration not stated) | -8 | -2 | -7 | -6 | -15 | -4 | i | 20
Cc1ccc(-n2c(C)nnc2SCC(=O)N(C)C2CCS(=O)(=O)C2)cc1 (configuration not stated) | -2 | 1 | . | -14 | -9 | . | . | -1
CCOc1ccc(OCc2ccc(C(=O)NC(C)C)o2)cc1 | 6 | -9 | 16 | -22 | -5 | 2 | i | -8
Brc1cccc(OCCN2CCc3ccccc3C2)c1 | 1 | 0 | 10 | -24 | 84* | -8 | i | 28
CCOC(=O)N1CCN(CC(=O)c2ccc3c(c2)CCN3)CC1 | 2 | 7 | 2 | . | -7 | 3 | i | .
CSc1nc2nc3c(cc2c(=O)[nH]1)C(O)Oc1ccc(C)cc1-3 (configuration not stated) | -4 | 1 | 4 | . | 2 | -3 | i | -15
CCOc1ccc(CCNC(=O)COC(=O)CCS(=O)(=O)c2ccc(C)cc2)cc1OCC | -7 | -2 | . | -7 | -1 | . | i | .
Cc1cc(Cl)c(OCCOCCN2CCNCC2)c(Cl)c1 | 3 | 3 | . | 3 | 30 | . | i | 6
O=C1NC(Cc2ccccc2)C(=O)N1Cc1ccccc1 (configuration not stated) | 0 | 1 | . | -15 | . | . | . | 3
NC(=NC(=O)c1ccc(OCC(F)(F)F)nc1)c1ccc(Cl)cc1 | -1 | 1 | 0 | -9 | 14 | -1 | i | 1
Cc1occc1C(=O)NNC(=O)CN1C(=O)NC(C)(c2ccccc2)C1=O (configuration not stated) | 1 | 1 | . | -21 | -10 | . | i | .

By substructure: the entries above with an aryl methoxy group (4)
SMILES | MT1-MMP act inh | MT1-MMP act inh RFP | PABP FP inh | Yeast UUG start | CSC inhib | eIF4H inh | Rce1 inhib | HIV Env fusion | others
COc1ccc(NC(=O)CN(c2ccccc2F)S(=O)(=O)c2ccc(C)cc2)c(OC)c1 | 3 | 1 | -2 | 13 | 4 | 2 | i | 3
COc1cc(OC)cc(C(=O)N[C@H](C(=O)OCC(=O)c2ccc(C)c([N+](=O)[O-])c2)C(C)C)c1 | 4 | -2 | . | . | -1 | . | . | 32
COc1ccc(-c2cc(C(=O)NN)[nH]n2)cc1 | 2 | 5 | 4 | . | -4 | -6 | i | -40
COc1ccc(NC(=O)CSc2ccc3nnc(-c4ccccn4)n3n2)cc1 | 5 | 3 | 0 | -22 | -7 | -6 | i | -9

Next structures follow.
SMILES | MT1-MMP act inh | MT1-MMP act inh RFP | PABP FP inh | Yeast UUG start | CSC inhib | eIF4H inh | Rce1 inhib | HIV Env fusion | others
COC(=O)c1noc(C)c1-c1ccnn1C(=O)c1ccc(C)cc1 | -2 | 3 | -1 | -8 | -2 | 0 | i | 12
C#CC1(NC(=O)NCCCC)CCCCC1 | -3 | 3 | 6 | 0 | . | -3 | i | 11
COc1cc(C(=S)N2CCOCC2)ccc1OC(=O)c1ccccc1C | 1 | -10 | 6 | -2 | 6 | -5 | i | 6
CCn1c(SCC(=O)N2CCCC2)nc2c(c1=O)SC(C)C2 (configuration not stated) | 4 | 5 | 6 | 7 | -6 | -3 | i | -38
O=C(COC(=O)c1ccc(Cl)nc1)NCc1ccc(F)cc1 | -7 | 0 | . | -8 | -18 | . | . | 3
Nc1ccc(C(=O)N2CCN(S(=O)(=O)c3ccc(Cl)s3)CC2)cc1[N+](=O)[O-] | -2 | -4 | . | -2 | 11 | . | i | -9
CC1=NN(c2ccccc2)C(=O)C1N=Nc1ccc(C)cc1 (configuration not stated) | . | . | -4 | . | -12 | 5 | i | .
O=C(/C=C/c1ccc(Cl)c([N+](=O)[O-])c1)Nc1ccc(N2CCCC2)c(Cl)c1 | 4 | -2 | 2 | . | 2 | -3 | i | -4
CCCCOn1c(C)c(C(=O)OCC)c2c3no[n+]([O-])c3ccc21 | 2 | -6 | 1 | -14 | . | -10 | i | -11
COC(=O)c1ccc(C(=O)NC(=S)Nc2nc3c(s2)CC(C)CC3)cc1 (configuration not stated) | 7 | 2 | -6 | . | -8 | 2 | i | .
O=C(NC(=S)Nc1ccc(S(=O)(=O)N2CCOCC2)cc1)c1ccccc1[N+](=O)[O-] | 0 | -2 | -7 | -16 | 2 | 7 | i | 17
COc1ccc(OCCCC(=O)NCc2ccco2)cc1 | 4 | 5 | -10 | . | -9 | 0 | i | .
CS(=O)(=O)N(CC(=O)NCc1ccco1)c1ccc(Cl)c(C(F)(F)F)c1 | 4 | -3 | 3 | -1 | -11 | 1 | i | 49
O=C(N/N=C/c1cccc(Cl)c1)C1CCCC1 | 0 | 0 | -6 | -10 | 4 | -2 | i | -39
COc1cccc(/C=C/C(=O)NCCc2ccc(OC)c(OC)c2)c1 | 5 | 3 | -8 | . | -2 | 6 | i | .
COc1ccc(-c2nn(-c3ccccc3)cc2C(=O)Nc2nccs2)cc1OC | -7 | -13 | -4 | -19 | 40 | -4 | i | .
COc1cc(/C=N/n2c(C3CCCCC3)n[nH]c2=S)ccc1O | -8 | -10 | -4 | -24 | -8 | -1 | i | 11
Cc1ccc(C(=O)NCC(=O)NC2CCCCCC2)cc1 | -1 | -1 | -8 | 0 | -2 | -13 | i | -15
CN(Cc1nc(C(c2ccccc2)c2ccccc2)no1)CC1COCCO1 (configuration not stated) | 0 | -2 | 3 | . | 7 | -3 | i | 15
CC(C)=CCC/C(C)=C/CNC(=O)CC1C[C@H](C(=O)N2CCCCC2)[C@@]2(C)c3[nH]c4ccccc4c3CCN2C1=O (some centres not stated) | -3 | -10 | . | -29 | . | . | . | 4
CCOc1ccc(NC(=O)CCNS(=O)(=O)c2cccc3nsnc23)cc1 | 1 | 0 | 15 | -2 | -2 | -3 | i | 5
Cc1ccc(S(=O)(=O)N2CCCC2C(=O)NC2=NCCS2)cc1 (configuration not stated) | 1 | 1 | -1 | -12 | . | -3 | i | .
COc1ccccc1/C=C/c1nc(C#N)c(N(C)C)o1 | -5 | -5 | 9 | 2 | 16 | -1 | i | -64
CC(NC(=O)c1cc2cc(Br)ccc2oc1=N)c1ccccc1 (configuration not stated) | -1 | -3 | 10 | -10 | -1 | 9 | i | -22
COc1ccc(OC)c(S(=O)(=O)N2CCCCCC2)c1 | 2 | 2 | -8 | 9 | 7 | 0 | i | .
O=C(Nc1nc2c(ccc3ccccc32)s1)c1ccco1 | -9 | -14 | 3 | -17 | 13 | 2 | i | -137
O=C(Nc1ccn(Cc2ccccc2F)n1)c1ccc(COc2cc(Cl)ccc2Cl)o1 | 7 | -13 | -7 | -9 | 37 | -10 | i | 42
O=C(NCCCSc1ccccc1)c1ccc(=O)[nH]c1 | 1 | 3 | -8 | -8 | -6 | -4 | i | -2
Cc1ccc(-c2cc(C(F)(F)F)c(C#N)c(SCC(=O)O)n2)cc1 | -2 | -3 | 1 | . | -3 | -1 | i | 26
CC1(C)C2CCC(C2)C1(C)NC(=O)CNC1CCCCC1 (configuration not stated) | -6 | -2 | 10 | 2 | -6 | 20 | i | 22
CCOC(=O)CCC(NC(=O)c1ccccc1C(=O)NC(CCC(=O)OCC)C(=O)OCC)C(=O)OCC (configuration not stated) | 1 | 0 | 9 | 5 | -9 | -8 | i | -17
COc1ccc(Cl)cc1NC(=O)C[n+]1cccc(C)c1 | -2 | 2 | 3 | -3 | 5 | 4 | i | 7
Cc1nn(-c2ccccc2)c(C)c1C(=O)NCc1cccs1 | -1 | 3 | 8 | -12 | -38 | 0 | i | -7
CN(CC1COc2ccccc2O1)C(=O)CSc1ncccn1 (configuration not stated) | 0 | 1 | . | -20 | . | . | . | -18
CN(Cc1ccc(Cl)cc1Cl)C(=O)c1cccc(S(=O)(=O)NCc2ccccc2)c1 | -1 | -4 | . | 17 | . | . | . | 13
COC(=O)C1C(=O)C=C(Nc2ccc(F)cc2F)CC1c1ccccc1 (configuration not stated) | 1 | 6 | -8 | . | -4 | -8 | i | 7
Cc1ccc([N+](=O)[O-])cc1NC(=O)CSc1nncn1-c1ccccn1 | -5 | -3 | -4 | 5 | -16 | -1 | i | 16
Cc1nnc(Sc2cc(NCCO)c([N+](=O)[O-])c3nonc23)s1 | 3 | 5 | 0 | . | . | 70 | i | 0 | eIF4H inh retest=-3;PABP FP inh retest=6
COc1ccc2ncc(S(=O)(=O)c3ccccc3)c(N3CCN(c4ccccc4)CC3)c2c1 | -9 | -13 | -4 | . | 12 | -7 | i | .
O=C(NCCOc1ccccc1)C1Nc2ccc(C(F)(F)F)cc2C2c3ccccc3CC12 (configuration not stated) | -2 | -3 | . | -15 | -23 | . | i | -22
O=C(CSc1ccc2nnc(CCNC(=O)c3ccccc3)n2n1)Nc1ccccc1F | -6 | -1 | -6 | . | -20 | -7 | i | 11
COc1cc(C2C(C(=O)Nc3ccc(F)cc3)=C(C)Nc3nc(CCCO)nn32)cc(OC)c1OC (configuration not stated) | 0 | 2 | 3 | -17 | -3 | -2 | i | 15
CC1(OC(=O)C2CCCC2)C(=O)C=C2C=C(c3ccsc3)N(CCCCO)C=C2C1=O (configuration not stated) | -1 | 6 | 37 | -6 | -3 | 49 | i | 28
Cc1ccc(OCCOCCOc2cccc3cccnc23)c(Br)c1 | 2 | 0 | 0 | . | 24 | -2 | i | 16
Cc1ccc(N(Cc2ccccc2)C(=O)Cc2ccc(S(=O)(=O)N3CCOCC3)s2)cc1 | -4 | -7 | . | 1 | . | . | . | 0
COc1ccc(-c2nnc3ccc(SCC(=O)NCC4CCCO4)nn23)cc1 (configuration not stated) | 7 | 2 | 1 | -18 | 2 | -7 | i | .
COc1ccccc1N1CCN(/N=C(\C)c2ccc(O)cc2)CC1 | 2 | 2 | -7 | -49 | . | -16 | i | -95
COc1ccc(NS(=O)(=O)c2ccc(OC)c(NC(=O)CCC3CCCCC3)c2)cc1 | -6 | -5 | -12 | -11 | -21 | 10 | i | 24
COc1ccc([N+](=O)[O-])cc1NC(=O)c1ccco1 | -1 | 1 | -9 | -12 | -11 | -2 | i | 10
COc1cccc(CN2C(=O)c3ccccc3C2C(=O)NCC2CCCO2)c1 (configuration not stated) | 0 | 4 | -8 | -22 | -4 | -1 | i | -32
COC(=O)c1cc(S(=O)(=O)N2CCCCC2)c[nH]1 | 3 | 5 | . | -16 | -3 | . | i | -1

The order is random; overall some 3% were active at least once.
